High-throughput results (PubChem)
H5N1 antiviral: MDCK cell protection from H5N1 avian flu | cytopathic effect, luminescence, 72 h; stronger effect = higher value; no value below 0 was filed and about half of the inactive calls have no number; reference of the scale not given here | inhibition, % at 50 µM | actives 0.07% (n = 96,000); in the data active = inhibition above about 25%
Numbers without * were called inactive; i = inactive.

SMILES	H5N1 antiviral
O=[N+]([O-])c1cc2c(cc1/C=N\NS(=O)(=O)c1ccccc1)OCO2	i
Clc1ccc(Oc2cnns2)c(Cl)c1	i
Cc1ccc(S(=O)(=O)N2CCN(C(=O)CCC(=O)NC3CCCc4ccccc43)CC2)cc1 (stereo unspecified)	i
C=CCn1c(N2C(=O)CC(Cc3ccccc3)C2=O)nc2ccccc21 (stereo unspecified)	i
CCc1nc2ccccc2c(=O)n1-c1cccc(OC)c1	1.4
O=c1oc2ccccc2c2c1nc(C(F)(F)F)n2-c1ccccc1	0.3
CCOC(=O)CSc1nnc(CNC(=O)c2cccc(C)c2)n1-c1ccccc1OC	0.5
CCOC(=O)C1CCCN(C(=O)Cn2sc3nc(C)cc(C)c3c2=O)C1 (stereo unspecified)	1.4
CCn1c(CNC(=O)COc2ccc(C(C)C)cc2)nnc1SCC(=O)Nc1ccccc1C(C)C	i
CSc1nsc(SCC(=O)Nc2ccccn2)n1	i
CCOC(=O)c1c(C)nc2c(c1-c1ccccc1)C(=O)CCC2	0.8
COc1ccc2c(COC(=O)c3n[nH]c4ccccc34)cc(=O)oc2c1	0.4
Cc1ccc(C)n1-c1ccncc1	1.9
Cc1cc(=O)[nH]c(SCCCOc2ccccc2Cl)n1	0.8
C/C(=N\O)C(=O)NCc1ccccn1	i
C=C(Cl)COc1ccc2c(C)cc(=O)oc2c1	i
CCc1ccc(-c2ccc(C(=O)C(F)(F)F)[nH]2)cc1	i
CC(=O)Nc1ccc(S(=O)(=O)N2CCN(C(=O)N3CCCCCC3)CC2)cc1	0.9
Cc1cc(NC(=O)COC(=O)[C@H](C)NC(=O)c2ccccc2)no1	i
Cc1cccc(C)c1NC(=O)CN1C(=O)S/C(=C\c2cccn2-c2cccc(C(=O)O)c2)C1=O	1.0
COC(=O)CCc1c(C)nc(N)[nH]c1=O	1.9
O=C(Nc1ccc(Cl)c(Cl)c1)c1csc(-c2ccccc2)n1	i
CCCCOc1ccc(/C=N/NC(=S)Nc2cccc(C)c2C)cc1	i
CCc1oc(C(=O)O)cc1COC	i
O=C(c1cccc(C(F)(F)F)c1)N1CCC(O)(CS(=O)(=O)Cc2ccc(Cl)cc2)CC1	0.4

Next section (six carried over from the part before).
SMILES	H5N1 antiviral
Cc1cccc(C)c1NC(=O)CN1C(=O)S/C(=C\c2cccn2-c2cccc(C(=O)O)c2)C1=O	1.0
COC(=O)CCc1c(C)nc(N)[nH]c1=O	1.9
O=C(Nc1ccc(Cl)c(Cl)c1)c1csc(-c2ccccc2)n1	i
CCCCOc1ccc(/C=N/NC(=S)Nc2cccc(C)c2C)cc1	i
CCc1oc(C(=O)O)cc1COC	i
O=C(c1cccc(C(F)(F)F)c1)N1CCC(O)(CS(=O)(=O)Cc2ccc(Cl)cc2)CC1	0.4
CNc1nc(C)c(C(C)=O)cc1C#N	0.1
CC(C)(C)c1ccc(/C=N/NC(=O)Cc2c[nH]c3ccccc23)cc1	i
CCN(CC)S(=O)(=O)c1cc(NC(=O)C(=O)c2c(-c3ccccc3)cc3ccccn23)ccc1C	i
COc1cccc(NC(=O)Cn2c(=O)n(CC3CCCO3)c(=O)c3ccccc32)c1 (stereo unspecified)	0.1
COc1ccc(N(C(C)=O)C2C=CS(=O)(=O)C2)c(OC)c1 (stereo unspecified)	i
CCOc1ccc(OCCSc2nnnn2-c2ccccc2)cc1	i
CCn1c(=O)cc(OCC(=O)N2CCc3ccccc32)c2ccccc21	1.3
COc1ccc(S(=O)(=O)N(Cc2ccccc2)Cc2nc3ccccc3c(=O)[nH]2)cc1	0.8
CC(=O)c1ccc(NC(=O)C2CCC(C)(C(=O)O)C2(C)C)cc1 (stereo unspecified)	i
C=CCN1C(=O)/C(=C\c2cccs2)C(C(=O)OC)=C1C	0.6
OC(CN1C2=NCCCN2c2ccccc21)c1ccc(Cl)cc1 (stereo unspecified)	i
CCC(Sc1nc(C)cc(C)n1)C(=O)O (stereo unspecified)	i
O=C(CCc1ccc(S(=O)(=O)NCCc2ccccc2)cc1)NCc1ccc2c(c1)OCO2	0.3
C/C(=N/NC(=O)c1ccoc1C)C12CC3CC(CC(C3)C1)C2	i
CC(C)OC(=O)c1sc2nc3c(cc2c1N)C(=O)CCC3	4.4
Clc1ccc(Cc2noc(-c3cccs3)n2)cc1	i
CC(=O)Nc1nonc1NC(=O)c1ccc(F)cc1	i
Cn1c(NC(=O)c2cc(Cl)ccc2Cl)cc(=O)n(C)c1=O	i
CCOC(=O)c1ccc(NC(=O)c2c(C)[nH]c(C(=O)OCC)c2C)cc1	i
COc1ccc(N2CCN(C(=O)CCCC3=NS(=O)(=O)c4ccccc4N3)CC2)cc1	1.4
CCN1CCCC1Cn1cnc2c([nH]c3ccc(Cl)cc32)c1=O (stereo unspecified)	i
O=C(CCCCCN1C(=O)C2C3C=CC(C3)C2C1=O)Nc1nccs1 (stereo unspecified)	0.6
CC12CCC(C(=O)N3CCCc4ccccc43)(CC1=O)C2(C)C (stereo unspecified)	0.1
O=C(Nc1ccccc1C(F)(F)F)N1CCCC(O)C1 (stereo unspecified)	i
CC1CC(=O)c2cnc(N3CCOCC3)nc2C1 (stereo unspecified)	0.6

(continued)
SMILES	H5N1 antiviral
COc1ccc(C2CC(c3c(-c4ccccc4)c4cc(Cl)ccc4[nH]c3=O)=NN2S(C)(=O)=O)cc1OC (stereo unspecified)	i
CCOC(=O)Cc1csc(NC(=O)c2sc3nc4c(C)cc(C)cc4cc3c2N)n1	i
COCCNC(=O)C(OC(=O)c1cc2oc(C)cc2n1C)C(C)C (stereo unspecified)	0.1
Cn1c(O)c(C(c2ccncc2)c2c(O)n(C)c(=S)n(C)c2=O)c(=O)n(C)c1=S	0.4
COc1ccc(NC(=O)CN2CCCCC2)c([N+](=O)[O-])c1	0.9
O=C(NCc1cccs1)c1nn2cccnc2c1Cl	i
O=C(Nc1ccc2c(c1)OCCO2)C1CCN(S(=O)(=O)c2ccc3c(c2)OCCO3)CC1	0.1
CCOC(=O)C1C(=O)NC(N2CCOCC2)=NC1c1ccco1 (stereo unspecified)	0.8
CC1(C)CC(=O)C=C(NCCN2CCN(C(=O)Nc3ccccc3)CC2)C1	0.4
COc1ccc(S(=O)(=O)n2nc(-c3cc(OC)c(OC)c(OC)c3)cc2N)cc1OC	0.0
O=C(C1CCCO1)N(c1cccc(Cl)c1)C1C=CS(=O)(=O)C1 (stereo unspecified)	0.1
CCOC(=O)n1c(=O)oc2cc(S(=O)(=O)N3CCCCC3)ccc21	i
O=C(COC(=O)c1cc(-c2ccco2)nc2ccccc12)NCc1ccccc1	0.4
C=CCNC(=O)Nc1ccc2oc(C)nc2c1	i
CN(C)c1nc(OCCOC(=O)COc2ccc(Cl)cc2Cl)nc(N(C)C)n1	i
CC1CC(C)CN(C(=O)CNS(=O)(=O)c2ccc(Br)s2)C1 (stereo unspecified)	0.8
COc1ccc(/C=N/NC(=O)c2ccc(Cn3cc([N+](=O)[O-])cn3)o2)c(OC)c1C	0.8
CC(C)CN1C(=O)CC(Sc2ccccc2C(=O)O)C1=O (stereo unspecified)	0.3
Cc1csc(C2=C(O)CN(c3ccc4c(c3)OCCOCCOCCOCCO4)C2=N)n1	1.0
CCn1c(=O)cc(OCC(=O)NCC2CCCO2)c2ccccc21 (stereo unspecified)	0.4
O=C(O)c1ccc(CSc2nc3ccccc3o2)cc1	0.1
O=C(CSc1ncn[nH]1)NCCOc1ccccc1	1.3
COc1ccc(OCCOC(=O)c2ccc(-n3cnnn3)cc2)cc1	i
O=C1c2ccccc2C(=O)N1OCCOCCOCCBr	0.2
CCN(C(C)=O)c1nc(CSc2nnc(NC(C)C)s2)cs1	0.9

Other structures
SMILES	H5N1 antiviral
CCOC(=O)C(Cc1ccccc1)NC(=O)CNC(C)=O (stereo unspecified)	i
C=CCOC(=O)C1=C(C)N=C2SCCC(=O)N2C1c1cccs1 (stereo unspecified)	0.4
S=C(NCCc1ccccc1)NC1CCCCCC1	1.6
COc1cc(OC)cc(-c2cc(NC(C)=O)n[nH]2)c1	0.6
COc1ccc(OC)c(S(N)(=O)=O)c1	i
CC(=O)c1cc2c(=O)c3cc(C)ccc3oc2nc1C	0.6
COC(=O)c1ccc(C(=O)OC)c(NC(=O)CN(c2ccc3c(c2)OCO3)S(C)(=O)=O)c1	i
Cc1c(NC(=O)CCSc2ccc(Cl)cc2)c(=O)n(-c2ccccc2)n1C	0.1
CCc1ccc(C(C)NC(=O)C2(C)CC2(Br)Br)cc1 (stereo unspecified)	2.6
COc1cc(CC(=O)NCc2ccccn2)cc(OC)c1OC	i
CN(Cc1ccccc1)C(=O)CNC(=O)Cn1cnc2ccccc2c1=O	0.1
C=CCNC(=S)NNC(=O)c1cccn(Cc2ccc(Cl)c(Cl)c2)c1=O	1.5
CC(C)CCN1CCNC(=O)C1CC(=O)Nc1ccc(F)cc1 (stereo unspecified)	i
COc1ccc(N2CCN(CCNC(=O)CCN3C(=O)COc4ccccc43)CC2)cc1	i
CCOC(=O)C1CCN(C(=O)c2ccc(Cl)c(Cl)c2)CC1	i
O=C(CSc1ncn[nH]1)Nc1nc(-c2ccccc2)cs1	2.1
O=C1CCc2cc(S(=O)(=O)N3CCN(Cc4ccc5c(c4)OCO5)CC3)ccc2N1	0.6
O=C(c1ccc(Br)o1)N1CCN=C1SCc1cccc(F)c1	1.6
CCC1SC(N)=NC1=O (stereo unspecified)	i
CC1(C)CC(=O)C(C2C3=C(CC(C)(C)CC3=O)Oc3ccccc32)=C(O)C1 (stereo unspecified)	0.0
O=C(COC(=O)C1CC(=O)N(Cc2ccccc2)C1)Nc1ccc2c(c1)OCO2 (stereo unspecified)	1.2
COc1ccc(Cn2c(CCC(=O)Nc3ccc(C)cc3)nc3cccnc32)cc1	0.3
COc1ccccc1NC(=O)C(C)NS(=O)(=O)c1ccc(F)cc1 (stereo unspecified)	i
O=C1CCc2nc3ccccc3c(=O)n2N1	i
CCn1c(CNc2nc(-c3ccccc3)cs2)nnc1SCC(=O)NCc1ccco1	i

2 records drawn at random from the list so far:
SMILES	H5N1 antiviral
O=C(COC(=O)c1cc(-c2ccco2)nc2ccccc12)NCc1ccccc1	0.4
C/C(=N/NC(=O)c1ccoc1C)C12CC3CC(CC(C3)C1)C2	i

The list continues.
SMILES	H5N1 antiviral
CNC(=O)Nc1ccc(Cl)cc1	i
O=C(NCCN1CCOCC1)Nc1ccccc1	i
CCN(CC)CCCn1c(=S)[nH]c2ccc(Cl)cc2c1=O	1.2
Nc1ccc2oc3ncccc3c(=O)c2c1	0.2
COc1cc(Cc2nc3ccc(S(=O)(=O)N4CCOCC4)cc3[nH]2)cc(OC)c1OC	1.1
CC(=O)c1c(NCCc2ccccc2)cc(C)oc1=O	0.7
CC1CN(C(=O)CSc2ncnc3sccc23)CC(C)O1 (stereo unspecified)	0.9
Cc1cc(C)n2nc(SCc3nnc(SCCCCl)o3)nc2n1	21.7
CCc1nnc(NC(=O)CSc2nnc(CNc3cccc(Cl)c3)n2CC)s1	i
CC(C)CC(=O)N1CCC(O)(CS(=O)(=O)Cc2ccccc2Cl)CC1	0.8
S=C(c1cccs1)N1CCCC1	0.9
COc1ccccc1OCC(=O)NCc1ccco1	6.9
CCCCN(CC)CCCNC(=O)CC1Nc2ccccc2NC1=O (stereo unspecified)	i
COc1ccc(-c2noc(C(C)n3nc(C)c([N+](=O)[O-])c3C)n2)cc1OC (stereo unspecified)	i
Cn1c(=O)cc(SCC(=O)N2CCN(C(=O)c3ccco3)CC2)c2ccccc21	i
O=C(CC1Sc2ncnn2C1=O)Nc1ccc(Br)cc1 (stereo unspecified)	i
O=S(=O)(Nc1ccc(S(=O)(=O)N2CCCCC2)cc1)c1cccs1	i
O=C1c2ccccc2CN1CCNS(=O)(=O)c1ccc2ccccc2c1	i
Cc1cc(OCC(=O)N2CCOCC2)c(C(C)C)cc1Cl	i
C/C(=N\Nc1nnc(C)c(=O)[nH]1)C(=O)O	i
COc1ccc2c(C)cc(N3CCOCC3)nc2c1	0.2
O=C(NCC1CCCO1)c1cc(-c2ccccc2)on1 (stereo unspecified)	i
CC1CCC/C(=N/Nc2ccc([N+](=O)[O-])cc2[N+](=O)[O-])C1 (stereo unspecified)	i
CCCc1nc2cc(CC(=O)OC)ccc2o1	i
Cc1ccc(-c2nc3cc(C)ccc3o2)cc1	i

The last 3 records of the section before are carried over, then new ones follow:
SMILES	H5N1 antiviral
CC1CCC/C(=N/Nc2ccc([N+](=O)[O-])cc2[N+](=O)[O-])C1 (stereo unspecified)	i
CCCc1nc2cc(CC(=O)OC)ccc2o1	i
Cc1ccc(-c2nc3cc(C)ccc3o2)cc1	i
O=C(COc1ccc(S(=O)(=O)N2CCCCC2)cc1)NCc1ccncc1	1.3
COc1ccc(OC)c(C2C(C#N)=C(N)Oc3c2c(C)nn3-c2cccc(Cl)c2)c1 (stereo unspecified)	i
O=C(CN1C(=O)C2(OCCO2)c2ccccc21)c1ccc(Cl)cc1	0.4
O=C1OCCC1S(=O)(=O)c1ccc2ccccc2c1 (stereo unspecified)	i
COCCN1CN(S(=O)(=O)c2ccccc2)c2nc3ccccc3nc21	2.4
CC(C)CSc1ncnc2c1oc1nc3c(cc12)COC(C)(C)C3	1.1
Cc1cc2c(c(=O)n1CCCn1ccnc1)C(c1ccco1)C(C#N)=C(N)O2 (stereo unspecified)	1.2
CCCCCN(C(=O)NC(=O)NC(C)CC)S(C)(=O)=O (stereo unspecified)	i
Cc1nn(CCc2n[nH]c(=S)n2-c2cccc(Cl)c2)c(C)c1[N+](=O)[O-]	2.1
Cc1ccc(-c2nc3ccccc3o2)cc1NC(=O)Cc1cccs1	i
Cc1cccc(N(C)S(=O)(=O)c2cccc3nsnc23)c1	2.8

Not all compounds are listed; rates above refer to the full screens.
